Vaccinia inh: blocks a specific stage of Vaccinia orthopoxvirus infection; Vaccinia-infected cells, mCherry/Venus stage reporter fluorescence; active compounds read low; some inactives read as strong as hits; activity change (mCherry), % (test concentration not listed); 89,000 tested, 0.01% active;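 active = mCherry past -33% and 40 or more points under the early reporter, replicates agreeing; inconclusive = past -33% without that gap or agreement; tested in A549 cells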;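 note: scaled between vehicle wells and reference inhibitor wells; 23 nL library stock went into each well; one replicate is shown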
Vaccinia inh Venus: second read-out of Vaccinia inh, no call of its own (marks repeat the call); activity change (Venus), %; measured here: Venus reporter, other viral stage;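 negative = less Venus signal; first of two replicates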
* marks the source's active call; other numbers are inactive results; u = inconclusive; x = no result given; & = joins results of further samples. These rows are one share of the data. The share of hits here may be higher or lower than overall.

SMILES	Vaccinia inh	Vaccinia inh Venus
C[C@H](CO)N1C[C@H](C)[C@H](CN(C)Cc2ccccn2)Oc2ncc(C3=CCCCC3)cc2C1=O	-19	-16
CCCC(=O)Nc1ccc2c(c1)C(=O)N(C)C[C@H](OC)[C@@H](C)CN(C(=O)CN(C)C)[C@@H](C)CO2	1	2
O=C1N[C@@H](Cc2ccccc2)COCn2nncc2CC[C@@H]1Cc1ccccc1	-2	0
O=C(NCC1CC1)[C@@H]1[C@@H](CO)[C@@H]2Cn3c(ccc(/C=C/c4ccccc4)c3=O)[C@H]1N2C(=O)C1CC1	24	5
C[C@@H]1CN([C@H](C)CO)C(=O)c2cc(NC(=O)Cc3ccccc3)ccc2O[C@@H](C)CCCCO[C@H]1CN(C)Cc1ccc(C(=O)O)cc1	14	5
COc1ccc(NC(=O)N2CC(=O)N3[C@H](CO)[C@@H](c4ccc(-c5ccc(C)cc5)cc4)[C@@H]3C2)cc1	u	x
C[C@@H]1CN([C@@H](C)CO)C(=O)Cc2cc(NC(=O)c3ccncc3)ccc2O[C@H]1CN(C)C(=O)NC1CCCCC1	8	8
C[C@@H]1CN([C@H](C)CO)C(=O)c2c(c3ccccc3n2C)-c2ccccc2CO[C@H]1CN(C)C	-17	-18
CC(C)NC(=O)Nc1cccc2c1O[C@H](CN(C)CC1CC1)[C@@H](C)CN([C@@H](C)CO)C2=O	8	7
CO[C@H]1CN(C)C(=O)c2ccc(NS(=O)(=O)c3ccccc3)cc2OC[C@H](C)N(C(=O)NC(C)C)C[C@H]1C	-2	-3
C/C=C/c1ccc2c(c1)O[C@@H](CN(C)Cc1ccc(C(=O)O)cc1)[C@@H](C)CN([C@@H](C)CO)S2(=O)=O	0	3
COc1ccc(S(=O)(=O)Nc2ccc3c(c2)CC(=O)N([C@H](C)CO)C[C@@H](C)[C@H](CN(C)Cc2ccncc2)O3)cc1	7	6
Cc1ccc(S(=O)(=O)Nc2cccc3c2O[C@H](CN(C)Cc2ccc4c(c2)OCO4)[C@@H](C)CN([C@H](C)CO)C3=O)cc1	8	5
C[C@@H]1CCCCO[C@@H](CN(C)Cc2ccc(C(F)(F)F)cc2)[C@H](C)CN([C@@H](C)CO)C(=O)c2cc(NS(=O)(=O)c3ccc(Cl)cc3)ccc2O1	u	x
C[C@@H]1CN([C@H](C)CO)C(=O)c2cc(-c3ccccc3F)cnc2O[C@@H]1CN(C)C(=O)NC1CCCC1	10	-1
C[C@@H]1CN([C@H](C)CO)C(=O)CCCn2cc(nn2)CO[C@H]1CN(C)C(=O)Nc1ccccc1C(F)(F)F	-2&17	-3&19
CN(C)C(=O)c1ccc(-c2ccc([C@@H]3[C@@H](CO)N4CCCCN(CCC(F)(F)F)C[C@H]34)cc2)cc1	14	-3
Cc1noc(C)c1S(=O)(=O)Nc1cccc2c1O[C@H](CN(C)C(=O)NC(C)C)[C@H](C)CN([C@@H](C)CO)C2=O	18	15
COCc1cn(CC[C@H]2CC[C@@H](NC(=O)c3ccccc3)[C@H](CO)O2)nn1	13	6
CO[C@@H]1CN(C)C(=O)c2ccc(NC(=O)c3cc(C)on3)cc2OC[C@@H](C)N(S(=O)(=O)c2cccc(C)c2)C[C@H]1C	-10	-8
CNC[C@H]1Oc2c(cccc2N(C)C)C(=O)N([C@@H](C)CO)C[C@H]1C	6	12
C[C@H](CO)N1C[C@H](C)[C@H](CN(C)S(=O)(=O)c2cn(C)cn2)Oc2ccc(N(C)C)cc2C1=O	18	16
CCCNC(=O)[C@@H]1[C@@H](CO)[C@@H]2Cn3c(ccc(C4=CCCC4)c3=O)[C@H]1N2C(C)=O	21	21
COC(=O)c1ccc([C@H]2C=C(C(=O)O)O[C@@H](OCCCCO)C2)cc1	4	5
C[C@@H]1CCCCO[C@@H](CN(C)C(=O)Nc2ccccc2)[C@H](C)CN([C@H](C)CO)C(=O)c2cc(NC(=O)Cc3ccccc3)ccc2O1	-21	-18
COc1ccc(-c2cn(CC[C@@H]3CC[C@@H](NC(=O)NC(C)C)[C@H](CO)O3)nn2)cc1	-6	-6
C[C@@H]1CN([C@H](C)CO)C(=O)Cc2cc(NS(=O)(=O)c3ccc(Cl)cc3)ccc2O[C@@H]1CN(C)S(=O)(=O)c1cn(C)cn1	11	6
CC(C)CC#Cc1ccc([C@H]2[C@@H](CO)N3CCCCN(C(=O)Cc4ccccn4)C[C@H]23)cc1	u	x
COc1ccc(NC(=O)Nc2ccc3c(c2)C(=O)N([C@H](C)CO)C[C@H](C)[C@H](CN(C)C(=O)Nc2ccccc2)O3)cc1	1	-6
CCCNC(=O)C[C@H]1C[C@H]2c3cc(NC(=O)C4CCOCC4)ccc3O[C@H]2[C@H](CO)O1	10	4
O=C(C[C@@H]1CC[C@@H](NC(=O)Nc2ccccc2)[C@H](CO)O1)NCc1cccc(F)c1	8	8
C[C@H]1CCCCO[C@H](CN(C)C)[C@@H](C)CN([C@@H](C)CO)C(=O)c2cc(NS(=O)(=O)c3cccs3)ccc2O1	24	12
C[C@@H]1CN([C@H](C)CO)C(=O)c2cccc(NC(=O)Nc3cccc4ccccc34)c2O[C@H]1CN(C)C(=O)Nc1cccc2ccccc12	-16	3
O=C(C[C@H]1CC[C@H]2[C@@H](COC[C@@H](O)CN2C(=O)Nc2cccc(Cl)c2)O1)NCCCN1CCOCC1	4	-1
COC(=O)C[C@@H]1CC[C@H]2[C@@H](COc3ccc(NC(=O)NC(C)C)cc3C(=O)N2C)O1	-3	0
O=C(c1ccncc1)N1CCCCN2[C@H](C1)[C@H](c1ccc(C#Cc3ccccn3)cc1)[C@@H]2CO	14	6
O=C(Cc1cccnc1)N[C@@H]1CC[C@@H](CCn2cc(-c3ccccc3F)nn2)O[C@H]1CO	9	8
C[C@H](CO)N1C[C@H](C)[C@H](CN(C)S(=O)(=O)c2cn(C)cn2)Oc2ncc(C#CCN(C)C)cc2C1=O	23&38	3&18
C[C@@H](O)C#Cc1cnc2c(c1)C(=O)N([C@@H](C)CO)C[C@H](C)[C@@H](CN(C)Cc1cncnc1)O2	6	5
Cc1noc(C)c1NC(=O)Nc1ccc2c(c1)C(=O)N([C@@H](C)CO)C[C@@H](C)[C@@H](CN(C)CC1CCCCC1)OCCCC[C@H](C)O2	1	-7

An excerpt of these results, in markdown.
| SMILES | Vaccinia inh | Vaccinia inh Venus |
| --- | --- | --- |
| COc1ccc(-c2cn(CC[C@@H]3CC[C@@H](NC(=O)NC(C)C)[C@H](CO)O3)nn2)cc1 | -6 | -6 |
| C[C@@H]1CN([C@H](C)CO)C(=O)Cc2cc(NS(=O)(=O)c3ccc(Cl)cc3)ccc2O[C@@H]1CN(C)S(=O)(=O)c1cn(C)cn1 | 11 | 6 |
| CC(C)CC#Cc1ccc([C@H]2[C@@H](CO)N3CCCCN(C(=O)Cc4ccccn4)C[C@H]23)cc1 | u | x |
| COc1ccc(NC(=O)Nc2ccc3c(c2)C(=O)N([C@H](C)CO)C[C@H](C)[C@H](CN(C)C(=O)Nc2ccccc2)O3)cc1 | 1 | -6 |

Additional results follow:
SMILES	Vaccinia inh	Vaccinia inh Venus
O=C(Nc1cccc(F)c1)N1CC(=O)N2[C@@H](CO)[C@H](c3ccc(-c4ccccc4F)cc3)[C@@H]2C1	-30	-20
N#Cc1cccc(-c2ccc3c(c2)[C@H]2[C@H](CCN2S(=O)(=O)c2ccccc2)[C@H](CO)N3)c1	u	x
O=C(O)C[C@H]1C[C@@H]2c3cc(NC(=O)Nc4ccccc4)ccc3O[C@@H]2[C@H](CO)O1	3	-4
CC(C)NC(=O)N(C)C[C@H]1Oc2cc(-c3ccncc3)ccc2S(=O)(=O)N([C@H](C)CO)C[C@H]1C	18	6
CC(C)C#Cc1cnc2c(c1)C(=O)N([C@@H](C)CO)C[C@H](C)[C@@H](CN(C)Cc1ccc3c(c1)OCO3)O2	36	11
C[C@H](CO)N1C[C@H](C)[C@H](CN(C)Cc2ccc(C(=O)Nc3ccccc3N)cc2)Oc2ccc(NC(=O)C3CC3)cc2CC1=O	-18	-22
CCC(=O)N(C)C[C@H]1Oc2cc(Br)ccc2S(=O)(=O)N([C@@H](C)CO)C[C@@H]1C	3	2
C[C@H]1CN([C@@H](C)CO)C(=O)Cc2cc(NC(=O)Cc3cn(C)c4ccccc34)ccc2O[C@@H]1CN(C)S(C)(=O)=O	-10	-14
CNC[C@@H]1Oc2ncc(Br)cc2C(=O)N([C@H](C)CO)C[C@@H]1C	17	9
O=S(=O)(N[C@H]1CC[C@@H](CCn2cc(C3CC3)nn2)O[C@H]1CO)c1ccc(Cl)cc1	-8	-3
O=C(C[C@H]1C[C@@H]2c3cc(NC(=O)c4ccc5c(c4)OCO5)ccc3O[C@@H]2[C@H](CO)O1)NC1CCCC1	8	8
C[C@@H]1CN([C@@H](C)CO)C(=O)c2cc(C#Cc3ccccc3F)cnc2O[C@H]1CN(C)S(=O)(=O)c1ccccc1F	-25	-18
COc1cccc(S(=O)(=O)N[C@H]2C=C[C@H](CC(=O)NCc3ccc(Cl)cc3)O[C@@H]2CO)c1	-21	-21
COc1ccc(NC(=O)N(C)C[C@@H]2Oc3ncc(C#CCC(C)C)cc3C(=O)N([C@@H](C)CO)C[C@H]2C)cc1	-19	-11
Cc1noc(C)c1NC(=O)Nc1cccc2c1O[C@H](CN(C)Cc1ccc3c(c1)OCO3)[C@H](C)CN([C@H](C)CO)C2=O	-2	-8
C[C@@H]1CCCCO[C@H](CN(C)S(=O)(=O)c2cccs2)[C@@H](C)CN([C@H](C)CO)C(=O)c2cc(NS(=O)(=O)c3ccccc3)ccc2O1	2	-3
CCC(=O)N1C[C@@H](C)[C@@H](OC)CN(C)C(=O)c2ccc(NC(=O)C3CCCCC3)cc2OC[C@H]1C	1	-3
Cc1noc(C)c1S(=O)(=O)Nc1ccc2c(c1)C(=O)N([C@H](C)CO)C[C@@H](C)[C@H](CN(C)Cc1ccc(C(F)(F)F)cc1)OCCCC[C@@H](C)O2	u	x
COCCNC(=O)C[C@H]1C[C@H]2c3cc(NC(=O)c4cccnc4)ccc3O[C@H]2[C@H](CO)O1	17	14
O=C(Nc1ccc(F)cc1)N[C@H]1CC[C@@H](CCNS(=O)(=O)c2cccc(Cl)c2)O[C@@H]1CO	-9	-11
COc1ccc(S(=O)(=O)N(C)C[C@H]2OCCCC[C@@H](C)Oc3ccc(NS(=O)(=O)c4cn(C)cn4)cc3C(=O)N([C@@H](C)CO)C[C@@H]2C)cc1	17	0
CCNC(=O)[C@H]1[C@H](CO)[C@H]2Cn3c(ccc(C4=CCCCC4)c3=O)[C@@H]1N2C(=O)Cc1ccccn1	16	4
COc1ccc2c3c(n(C)c2c1)[C@H](CO)N(CC1CCOCC1)CC31CN(C(=O)Nc2ccccc2)C1	-3	5
Cc1ccc(S(=O)(=O)N[C@@H]2C=C[C@H](CC(=O)NC3CCCCC3)O[C@@H]2CO)cc1	-3	3
COC(=O)C[C@@H]1C[C@H]2c3cc(NC(=O)NC4CCCC4)ccc3O[C@H]2[C@@H](CO)O1	5	7
NCC[C@H]1CC[C@H](NS(=O)(=O)c2ccc(Cl)cc2)[C@@H](CO)O1	-4	6
C[C@@H]1CCCCO[C@H](CN(C)C(=O)NC2CCCCC2)[C@H](C)CN([C@@H](C)CO)C(=O)c2cc(NS(=O)(=O)c3cn(C)cn3)ccc2O1	-2	-5
C[C@H]1CN([C@@H](C)CO)C(=O)Cc2cc(NC(=O)Nc3cccc4ccccc34)ccc2O[C@@H]1CN(C)Cc1ccc(-c2ccccc2)cc1	11	4
C[C@H](CO)N1C[C@H](C)[C@H](CN(C)Cc2ccc(C(=O)O)cc2)OCCCC[C@H](C)Oc2ccc(NS(=O)(=O)c3cccs3)cc2C1=O	28	16
O=C(C[C@@H]1CC[C@@H]2[C@H](COC[C@H](O)CN2Cc2cccc(C(F)(F)F)c2)O1)NCCc1ccccc1	u	x
COc1cccc(S(=O)(=O)N[C@H]2CC[C@H](CCNC(=O)Nc3cc(F)ccc3F)O[C@@H]2CO)c1	-1	8
C[C@@H]1CN([C@@H](C)CO)C(=O)c2cc(NS(=O)(=O)c3ccccc3)ccc2O[C@@H](C)CCCCO[C@@H]1CN(C)C(=O)C1CCCCC1	u	x
CC(C)C#Cc1ccc([C@@H]2[C@H]3CN(C(=O)Cc4ccccc4)CC(=O)N3[C@H]2CO)cc1	-9	-12
CS(=O)(=O)N[C@H]1C[C@@H]2O[C@H](CO)CC[C@@H]2O[C@@H]1CCc1ccc(-c2ccccc2F)cc1	-32	-34
C[C@H]1CN([C@@H](C)CO)S(=O)(=O)c2ccc(Br)cc2O[C@H]1CN(C)C(=O)C1CCC1	11	11
O=C(C1CCCC1)N1CCCCN2[C@H](CO)[C@@H](c3ccc(C#CC4CC4)cc3)[C@@H]2C1	15	-1
COc1ccc(NC(=O)Nc2ccc3c(c2)CC(=O)N([C@H](C)CO)C[C@@H](C)[C@@H](CN(C)Cc2ccc4c(c2)OCO4)O3)cc1	-14	1
C[C@@H]1CN([C@@H](C)CO)C(=O)CCCn2cc(nn2)CO[C@H]1CN(C)Cc1ccccc1C(=O)O	9	11
CO[C@@H]1CN(C)C(=O)c2cc(NC(=O)C3CC3)ccc2OC[C@@H](C)NC[C@@H]1C	0	2

Grouped by structure: the entries above containing two or more sulfur atoms
SMILES	Vaccinia inh	Vaccinia inh Venus
C[C@@H]1CN([C@H](C)CO)C(=O)Cc2cc(NS(=O)(=O)c3ccc(Cl)cc3)ccc2O[C@@H]1CN(C)S(=O)(=O)c1cn(C)cn1	11	6
C[C@H]1CCCCO[C@H](CN(C)C)[C@@H](C)CN([C@@H](C)CO)C(=O)c2cc(NS(=O)(=O)c3cccs3)ccc2O1	24	12
C[C@@H]1CCCCO[C@H](CN(C)S(=O)(=O)c2cccs2)[C@@H](C)CN([C@H](C)CO)C(=O)c2cc(NS(=O)(=O)c3ccccc3)ccc2O1	2	-3
COc1ccc(S(=O)(=O)N(C)C[C@H]2OCCCC[C@@H](C)Oc3ccc(NS(=O)(=O)c4cn(C)cn4)cc3C(=O)N([C@@H](C)CO)C[C@@H]2C)cc1	17	0
C[C@H](CO)N1C[C@H](C)[C@H](CN(C)Cc2ccc(C(=O)O)cc2)OCCCC[C@H](C)Oc2ccc(NS(=O)(=O)c3cccs3)cc2C1=O	28	16

Screening data from PubChem BioAssay.
